NPYLR7 ag: agonists of mosquito NPYLR7 receptor, primary screen, cell-based, Aedes aegypti, calcium fluorescence, mosquito biting behavior | Aedes aegypti neuropeptide Y-like receptor 7 (NPYLR7) | HEK293T NPYLR7/Galpha15, GCaMP6s calcium fluorescence | activation, % at 10 µM | hit rate 0.15% among 270,000 | AID 1259423, 2018; in the data active = activation above about 40%;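 note: 0% = vehicle and 100% = reference agonist at the receptor; some compounds past the cut are filed as inactive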
NPYLR7 ag max-min: recorded beside NPYLR7 ag, whose call it bears; activation, %; measured here: Max-Min RFU normalised activation; some inactives read as strong as hits;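 span of the calcium signal over five minutes; 0% = vehicle and 100% = native peptide agonist; compound fluorescence can raise it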
* = called active by the depositor; & = joins results of further samples. These rows are one share of the data; count on the stated rates, not on these rows.

SMILES	NPYLR7 ag	NPYLR7 ag max-min
C=C(C)COc1cccc(C(=O)NCc2ccc(C(F)(F)F)nc2)c1	-4	-9
CC(OC(=O)c1occc1-c1ccccc1)C(=O)N(C)C1CCS(=O)(=O)C1 (configuration not stated)	2	-1
CC1=C(/C=C/C(C)=C/C=C/C(C)=C/C(=O)O)C(C)(C)CCC1	-9&26&0&1	-15&6&-4&-9
Cc1nc(CNC(=O)Nc2cc(C(C)(C)C)on2)sc1C	-2	-4
COc1ccc(-c2cccc(-c3cccc(NC(=O)CCC(C)C)c3)n2)cc1	-6	-11
O=c1cc(CN2CCCCC2)c2cc(O)c(-c3ccccc3)cc2o1	-6	-7
CNC(=O)c1cccc(CCNC(=O)N(C)C(C)c2ccncc2)c1 (configuration not stated)	3	2
O=C(c1ccc2nnc(C(F)F)n2c1)N1CCCC1c1cccs1 (configuration not stated)	16	10
CC(=O)n1cc(/C=C2/N=C(c3ccccc3)OC2=O)c2ccccc21	-3	-10
O=C(CN1CN(c2ccccc2)C2(CCN(C(=O)Nc3ccc(Cl)cc3)CC2)C1=O)NCc1ccco1	20	28

Gathered by group: those above with a halogen (3)
SMILES	NPYLR7 ag	NPYLR7 ag max-min
C=C(C)COc1cccc(C(=O)NCc2ccc(C(F)(F)F)nc2)c1	-4	-9
O=C(c1ccc2nnc(C(F)F)n2c1)N1CCCC1c1cccs1 (configuration not stated)	16	10
O=C(CN1CN(c2ccccc2)C2(CCN(C(=O)Nc3ccc(Cl)cc3)CC2)C1=O)NCc1ccco1	20	28

The main list resumes with the 2 entries that preceded the break.
SMILES	NPYLR7 ag	NPYLR7 ag max-min
CC(=O)n1cc(/C=C2/N=C(c3ccccc3)OC2=O)c2ccccc21	-3	-10
O=C(CN1CN(c2ccccc2)C2(CCN(C(=O)Nc3ccc(Cl)cc3)CC2)C1=O)NCc1ccco1	20	28
CC(NC1CCN(C)CC1)c1ccc(-c2ccccc2)cc1 (configuration not stated)	-9	-12
CCC(C)N(Cc1cc(Cl)ccc1OS(=O)(=O)c1ccc(NC(C)=O)cc1)C(=O)NC(C)C (configuration not stated)	6	15
COc1ccccc1NC(=O)N(Cc1ccccc1Cl)CC1CC(c2ccccc2C)=NO1 (configuration not stated)	2	11
CCCNC(=O)C1(C)CCN(Cc2cccc3c(OC)cc(C(=O)OCC)cc23)C1 (configuration not stated)	9	10
CNc1cnc(-c2ccccc2OC)cn1	2	2
CCC(C)NC(=O)C1=C(C)C(=O)OC12CCN(C(C)=O)CC2 (configuration not stated)	8	7
CC(NC=CC(=O)C(F)(F)F)C12CC3CC(CC(C3)C1)C2 (configuration not stated)	0	1
COc1cccc(-c2cc(C(=O)Nc3cccc4c3C(=O)c3ccccc3C4=O)c3ccccc3n2)c1	10	5
CCOC(=O)C1C2C=CC3(CN(Cc4cccs4)C(=O)C13)O2 (configuration not stated)	3	1
CC1=NOC(C)(CNC(=O)c2csc(-c3cccs3)n2)C1 (configuration not stated)	4	2
COc1ccc([C@@H]2Sc3ccccc3N(CCN(C)C)C(=O)[C@@H]2OC(C)=O)cc1	-3&0&-10	-7&-4&-12
Cn1c(=O)c2c(nc3n2CC(c2ccccc2)=NN3CCN2CCCCC2)n(C)c1=O	3	5
Nc1ncc(-c2ccccc2)c(-c2ccc(OCc3ccccc3F)cc2O)n1	3	-3
CC1=NC(N2CCN(C)CC2)c2c(sc(C(=O)N3CCCC3)c2C)N1 (configuration not stated)	2	-2
CSc1nnc2c(n1)OC(c1cccnc1)Nc1ccccc1-2 (configuration not stated)	2	-2
Cc1nccn1CCCNC(=O)CC1C(=O)NCCN1Cc1ccccc1C(F)(F)F (configuration not stated)	-1	-3
COc1ccc(CNC2CCSc3ccccc32)cc1O (configuration not stated)	1	1
O=C(Nc1ccc(F)cc1)c1cc(C2CC2)n(C2CCS(=O)(=O)C2)n1 (configuration not stated)	2	-1
CN(CCOc1ccc(C[C@H](Nc2ccccc2C(=O)c2ccccc2)C(=O)O)cc1)c1ccccn1	-5	-16
CNC(=O)CN1C(=O)C2C3C=CC(C3)C2C1=O (configuration not stated)	2	8
COc1ccccc1-c1nnc(SCCC#N)n1C	10	1
NC(=S)Cc1nc2ccccc2s1	-1	-3
CN1CCN(c2ccc(F)cc2C(=O)Nc2ccccc2F)CC1	2	1
CC(NS(=O)(=O)N1CCOCC1)c1cc2ccccc2o1 (configuration not stated)	0	-2
CCOCCOC(=O)CCSc1n[nH]c(=O)[nH]c1=O	-4	-4
CCOCCCNC(=O)c1cc(NC(=O)C(CC)c2ccccc2)ccc1N1CCC(Cc2ccccc2)CC1 (configuration not stated)	-2	3
CNc1snc(C)c1C(=O)OCC(=O)c1cc(C)n(C(C)C)c1C	-1	13
COc1ccc2cc(C3CN(CCCn4ccnc4C)CCO3)ccc2c1 (configuration not stated)	4	-4
Cc1ccccc1C(=O)N[C@@H]1CCCCC1NC(=O)C1CCN(C(=O)c2ccccc2Cl)CC1 (some centres not stated)	2	9
COCCn1c(SCc2cc(F)cc(C(F)(F)F)c2)nnc1-c1cc(-c2ccccc2)nc2ccccc12	2	9
Cc1ccc2nc(NC(=O)c3ccccc3[N+](=O)[O-])sc2c1	-1	-3
CN(C(=O)c1ccsc1)C(Cc1ccccc1)C1CCN(C(=O)c2ccc3[nH]ccc3c2)CC1 (configuration not stated)	15	9
COc1ccc(-n2nnc3c(=O)n(CC(=O)OCc4ccccc4)cnc32)cc1	4	7
Fc1ccc(Oc2cc(N3CCN(CCN4CCOCC4)CC3)ncn2)c(F)c1	-9	-1
COc1cc(C(C)NC(=O)C(C)S(=O)(=O)C(C)C)ccc1OC(C)C (configuration not stated)	6	2
CCOC(=O)Cn1c(CN2CCN(c3ccc(F)cc3)CC2)nc2c1c(=O)n(C)c(=O)n2C	-4	-4
O=C(CCS(=O)(=O)c1ccccc1)NCc1cc(-c2ccc3c(c2)OCO3)on1	-2	-5
Cc1cccc(C2N3CC4(C)CN2CC(C)(C3)C4O)c1 (configuration not stated)	9	8
c1cnc2nc(-c3ccsc3)c(Nc3ccc4c(c3)OCO4)n2c1	0	-2
Cc1ccc(C)c(N2C(=O)CSC2c2cccc(NS(=O)(=O)c3cccc4ccccc34)c2)c1 (configuration not stated)	3	11
CC(C)N(Cc1ccc(OS(=O)(=O)c2cccc(C(F)(F)F)c2)cc1)C(=O)C1CC1	-5	5
CS(=O)Cc1cccc(C(=O)N2CCCC2CN2CCCC2)c1 (configuration not stated)	-1	-1
COCC(=O)Nc1ccc(N2CCN(C(=O)NCc3ccccc3F)CC2)nc1	17	23
Cc1c(-c2nn(C)c(=O)c3ccccc23)oc2ccc(Br)cc2c1=O	3	-1
Cc1nn(CN(C)Cc2c(C)noc2C)c(C)c1Br	10	10
C/C(=N/NC(=O)c1nn(C)cc1I)c1cccc(NC(=O)C(C)C)c1	6	14
CN[C@@H]1C(O)[C@@H](O[C@@H]2[C@@H](O)[C@H](O[C@H]3OC(CN)=CC[C@H]3N)[C@@H](N)C[C@H]2N)OC[C@]1(C)O (some centres not stated)	-6	-10
CC(N)=C(C#N)C(=O)CSc1n[nH]c(N)n1	3	2
COCc1cc(C)nc(OCC(=O)N/N=C\c2ccc(N(C)C)cc2)c1C#N	-5	-11
CSc1nc2ncc3c(=O)n(-c4ccc(F)cc4)ccc3n2n1	3	8

Additional compounds
SMILES	NPYLR7 ag	NPYLR7 ag max-min
O=C(Nc1ccc2c(c1)CN(Cc1ccc(F)cc1)CC2)c1ccccc1Cl	11	6
Cc1ccc(S(=O)(=O)N(C)c2c(C)ccc(S(=O)(=O)NCCC(=O)O)c2C)cc1	-9	-14
CCCOc1cc(Nc2ccc(NC(=O)Nc3ccc(OC)c(OC)c3)cc2)nc(C)n1	1	-6
CC1=C(C(=O)OC2CCCCC2)C(c2ccccc2OC(C)C)C2=C(CCCC2=O)N1 (configuration not stated)	-8	-12
CSCCCNC(=O)c1cccc(OC2CCN(S(=O)(=O)N(C)C)CC2)c1	-1	-2
CC1CCN(C(=O)c2cc(NC(=O)c3ccc(Cl)cc3)c(=O)n(C)c2)CC1	0	-2
CC1CC(C)(C)CC2(C1)NC(=O)N(c1ccccc1)N2 (configuration not stated)	7	5
CCCSc1nsc(SCCC)c1C(N)=O	4	2
COc1ccc(C2=N/C(=C/C=C/c3ccccc3)C(=O)O2)cc1Br	-7	-12
CCCCC(=O)N(CCOC)Cc1cccc(OS(=O)(=O)c2ccc(F)cc2)c1	-9	0
COc1ccc2c(c1)C1CC(C)(O2)N(C)C(=O)C1S(=O)(=O)c1ccc(C(C)(C)C)cc1 (configuration not stated)	8	9
Cc1nc(SCC(=O)O)nc(N2CCCC2)c1C	16	12
OCC1(CCOc2ccccc2)CCN(Cc2ccccc2C(F)(F)F)CC1	22&-9	12&-12
Cc1ccc(S(=O)(=O)c2cnc(SCC(=O)Nc3ccccc3C)[nH]c2=O)c(C)c1	-1	-6
COc1ccccc1OC1CN(Cc2cc(C)[nH]n2)C1	27	12
NC(=O)C1CCN(c2csc3ccc(Cl)cc3c2=O)CC1	1	-3
Cc1cc(C)c(C)c(SCc2cc(=O)n3[nH]cc(C#N)c3n2)c1C	2	1
Cc1cccc(Nc2ncccc2C(=O)NC(c2ccc(F)cc2)c2ccc(SCc3ccccc3)cc2)c1C (configuration not stated)	-6	-12
CCCn1c(N2CCN(Cc3ccc(C)cc3)CC2)nc2c1c(=O)[nH]c(=O)n2C	1	9
CCOC(=O)c1nn(-c2ccccc2F)c(=O)c2c(NC(=O)C3CC3)scc12	3	2
CCCCCNc1nc2c(-c3cccc(Br)c3)nnn2c2ccccc12	-5	-6
COc1ccc2c3c1CN(Cc1cccc(NC(C)=O)c1)CC3=CC(C)(C)CO2	2	6
Cc1ccsc1-c1nccn1-c1ccc2n[nH]nc2c1	10	7
CC(C)C(C)N(Cc1ccco1)C(=O)c1ccc2nc[nH]c2c1 (configuration not stated)	2	1
Cc1nc2c(c(=O)n1C)CCN(C(=O)Cc1c[nH]c3ccccc13)CC2	-2	-9
O=C(c1ccc(NCc2cccnc2)nc1)N1CCCC(c2ccccc2)CC1 (configuration not stated)	1	-7
O=C(c1ccncc1)N1CCN(C(=O)c2ccccc2F)CC1	-4&5	-5&1
COCc1cc(N2CCN(Cc3ccccc3)CC2)nc(SCc2ccc(C(=O)NCc3ccccn3)cc2)n1	-9	6
CC(=O)NS(=O)(=O)c1ccc(NC(=O)c2csc(-c3cnccn3)n2)cc1	-1	-2
O=C(Cc1c(Cl)cccc1Cl)Nc1ccc(C(=O)O)cc1	0	1
CC(C)CCn1c2ccccc2c2nc3cc(OC(C)C)c(OC(C)C)cc3nc21	4	3
Cn1ncc(C(=O)N2CCN(C3c4ccccc4CCc4ccccc43)CC2)c1Cl	19	-1
O=C(NC(C(=O)N/N=C\c1ccccc1[N+](=O)[O-])c1n[nH]c(=O)c2ccccc12)c1ccccc1 (configuration not stated)	-9	-14
Cc1cc(C)c2nc(C)cc(NC(=O)CN3C(=O)c4ccccc4C3=O)c2c1	2	1
CNC(=O)[C@@H]1CN2CCN(C(=O)NCc3ccccc3)C[C@@H]2[C@H]1c1ccccc1	9	18
COc1cccc(C(O)CNC(=O)COc2ccccc2F)c1 (configuration not stated)	4	3
Cc1nnsc1CN(C)Cc1ccc2cccc(O)c2n1	6	3
Cc1nnc(SCCNC2CCC3(CCNCC3)CC2)s1	13	3
O=C1OC(c2cc(F)c(F)cc2Cl)=N/C1=C\C=C\c1ccccc1	-8	-14
CN1CCC(C(=O)NCC(c2ccccc2)c2ccccc2)CC1=O (configuration not stated)	1	-3
CC(C)(C)C(=O)C=c1[nH]c(=O)c(=Cc2ccsc2)s1	-4	19
CCc1sc(C(=O)NC(CC(C)C)C(=O)OC)cc1C (configuration not stated)	19	20
COCCC1CN(Cc2ccc(S(C)(=O)=O)cc2)CCO1 (configuration not stated)	11	3
Cc1cc(=O)[nH]c(-n2nc(C)c(CCC(=O)NC3CCCC3)c2C)n1	-2	-4
CCOC(=O)[C@H](CC(C)C)N1CC[C@@]2(CCCN2Cc2cc3c(cc2Cl)OCO3)C1=O	-2	16
CCOc1nn(CC)cc1-c1n[nH]c(=S)n1CC	-5	-3
O=C(CN1CCOc2ccccc2C1)NCc1cnn2ccccc12	-4	-8
O=C(C1CSCN1C(=O)C1CCC1)N1CCCN2CCCC2C1 (configuration not stated)	11	6
Cc1cc(C(=O)N2CCC3(CCOCC3)CC2)c(=O)n(C)c1C	9	2
O=C(NCCC1=CCCCC1)N1CCC(n2cncn2)CC1	-6	-6

Structural class: the compounds so far with a COOH group (5)
SMILES	NPYLR7 ag	NPYLR7 ag max-min
CC1=C(/C=C/C(C)=C/C=C/C(C)=C/C(=O)O)C(C)(C)CCC1	-9&26&0&1	-15&6&-4&-9
CN(CCOc1ccc(C[C@H](Nc2ccccc2C(=O)c2ccccc2)C(=O)O)cc1)c1ccccn1	-5	-16
Cc1ccc(S(=O)(=O)N(C)c2c(C)ccc(S(=O)(=O)NCCC(=O)O)c2C)cc1	-9	-14
Cc1nc(SCC(=O)O)nc(N2CCCC2)c1C	16	12
O=C(Cc1c(Cl)cccc1Cl)Nc1ccc(C(=O)O)cc1	0	1

The results go on.
SMILES	NPYLR7 ag	NPYLR7 ag max-min
NC(=O)CN1CCC=C(CNC(=O)c2ccc(Cl)cc2Cl)C1	0	0
CN(Cc1ccco1)c1ccc(-c2nccn2C)nn1	-3	-5
O=C(CN1C(=O)C(=O)N(CCC2=CCCCC2)C1=O)NC1CCCC1	6	3
CC(C)CN(C(=O)c1cc(F)c(F)cc1Cl)C1CCN(C)CC1	-1	38
CCc1cc(-c2nccn2CC2(c3ccccc3)CCOCC2)n[nH]1	3	2
CCS(=O)(=O)c1ccc(C(=O)N(Cc2ccccn2)c2nc3ccccc3s2)cc1	-2	-6
COCCCNC(=O)c1cc(NC(=O)C23CC4CC(CC(C4)C2)C3)ccc1N1CCCC1	-3	7
COc1ccc(N2C(=O)CC(NCc3ccc4c(c3)OCO4)C2=O)cc1 (configuration not stated)	-6	-12

Screening data (PubChem BioAssay)
